KCNQ2 block – KCNQ2 potassium channel inhibitors, primary screen, cell-based, CHO-K1, FluxOR thallium flux, B-score (AID 2156); B-score at 10 µM; actives 1.1% (n = 310,000); 20 min; active compounds read low; only compounds with negative scores are shown here; some inactives read as strong as hits; Potassium voltage-gated channel subfamily KQT member 2 (Rattus norvegicus), O88943;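 active means fluorescence ratio B-score at most minus 3 library SDs, with starting brightness B-score within 2 library SDs, cut at about -5.5 in these data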
Target sequence (O88943 whole entry, looked up): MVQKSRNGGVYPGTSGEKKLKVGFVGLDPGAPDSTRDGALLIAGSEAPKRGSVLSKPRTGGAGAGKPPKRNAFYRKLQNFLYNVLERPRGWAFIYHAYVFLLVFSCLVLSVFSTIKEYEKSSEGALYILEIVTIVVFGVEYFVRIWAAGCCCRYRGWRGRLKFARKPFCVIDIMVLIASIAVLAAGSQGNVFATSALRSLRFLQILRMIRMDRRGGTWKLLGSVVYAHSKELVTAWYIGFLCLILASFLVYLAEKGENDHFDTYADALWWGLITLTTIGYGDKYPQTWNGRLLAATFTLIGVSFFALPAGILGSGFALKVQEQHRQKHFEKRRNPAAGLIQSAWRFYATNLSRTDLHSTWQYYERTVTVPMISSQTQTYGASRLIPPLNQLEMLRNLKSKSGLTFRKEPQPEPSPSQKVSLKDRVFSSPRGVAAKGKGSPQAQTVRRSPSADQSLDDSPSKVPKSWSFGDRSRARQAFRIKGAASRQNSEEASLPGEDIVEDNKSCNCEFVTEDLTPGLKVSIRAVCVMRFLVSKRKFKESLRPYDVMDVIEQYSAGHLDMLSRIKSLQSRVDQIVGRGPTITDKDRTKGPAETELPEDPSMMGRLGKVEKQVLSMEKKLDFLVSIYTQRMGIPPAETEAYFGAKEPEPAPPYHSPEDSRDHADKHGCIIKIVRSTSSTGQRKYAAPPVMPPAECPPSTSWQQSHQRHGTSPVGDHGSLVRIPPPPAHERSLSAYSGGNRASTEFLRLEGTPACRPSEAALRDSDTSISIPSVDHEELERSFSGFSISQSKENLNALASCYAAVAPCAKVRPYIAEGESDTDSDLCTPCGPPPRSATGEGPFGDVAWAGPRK
KCNQ2 block baseline – further read-out of KCNQ2 block, marked with its call; B-score; measured here: initial fluorescence intensity artifact check;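 brightness before thallium and not channel activity; 0 = typical well and far values either way flag optical interference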
* marks the source's active call; other numbers are inactive results; i = inactive. This is a subset. The share of hits here may be higher or lower than overall.

Start of the listing, in advance, 2 compounds:
mol	KCNQ2 block	KCNQ2 block baseline
CC(C)c1ccc(N(CC(=O)NCc2ccc(F)cc2)C(=O)c2snc(C(N)=O)c2N)cc1	i	-0.07
CCc1ccc(OCC(=O)NCC(c2ccc(Cl)cc2)N2CCCCC2)cc1 (stereo unspecified)	-5.9*	-0.92*

The whole of this part, from the first entry:
mol	KCNQ2 block	KCNQ2 block baseline
CC(C)c1ccc(N(CC(=O)NCc2ccc(F)cc2)C(=O)c2snc(C(N)=O)c2N)cc1	i	-0.07
CCc1ccc(OCC(=O)NCC(c2ccc(Cl)cc2)N2CCCCC2)cc1 (stereo unspecified)	-5.9*	-0.92*
COc1ccc(C2C3=C(OC(C)=O)c4ccccc4C3=Nc3c2c(=O)n(C)c(=O)n3C)cc1 (stereo unspecified)	i	1.9
Cc1ccc(S(=O)(=O)c2cn(C)c3cc(N4CCN(C)CC4)c(F)cc3c2=O)c(C)c1	i	-1
CC1CC(C)CN(S(=O)(=O)c2ccc(NC(=O)C3COc4ccccc4O3)cc2)C1 (stereo unspecified)	i	-0.69
COc1ccc(C(C)NC(=O)C2C(=O)NC3(C)CC2c2ccccc2O3)cc1 (stereo unspecified)	i	0.75
CCCCC(=O)NC(=S)Nc1ccc(S(=O)(=O)N2CCCC2)cc1	i	0.95
Cc1ccccc1Nc1nc(-c2sc(NC(=O)c3ccccc3)nc2C)cs1	i	-0.04
O=C(Nc1ccc2oc(-c3ccncc3)nc2c1)c1ccc2c(c1)OCO2	i	-2.4
Fc1ccc(NCc2cccnc2)cc1F	i	1.9
CC(C)C(=O)Nc1cccnc1	i	-0.06
COCC(=O)Nc1nc(-c2ccc(-c3ccccc3)cc2)cs1	i	0.03
O=C(CNC(=O)C1COc2ccccc2O1)N/N=C/c1cc(Br)c(O)c(Br)c1 (stereo unspecified)	i	-0.14
O=C(c1cccc(C(F)(F)F)c1)c1c[nH]c(C(=O)NCC2CCCO2)c1 (stereo unspecified)	i	-1.5
Cc1cccc(N(CC(O)CN(C)C)S(=O)(=O)c2ccccc2)c1 (stereo unspecified)	i	-2.3
COc1ccc(/C=C/C(=O)NC(C)C)cc1Br	i	-0.78
Cc1[nH]c(=O)[nH]c(=O)c1NC(=O)c1cccs1	i	0.25
CN(CC(=O)Nc1ccc(S(=O)(=O)N2CCCC2)cc1)Cc1cccc(Cl)c1Cl	i	-0.07
CCOc1ccc2[nH]c(=O)c(CN(CC3CCCN3CC)C(=O)NCc3ccccc3)cc2c1 (stereo unspecified)	i	-0.01
Cc1cc2n(n1)C(c1ccc3c(c1)OCO3)Nc1ccccc1-2 (stereo unspecified)	i	-0.64
Cc1ccc(NC(=O)COC(=O)CNC(=O)c2ccc(Cl)cc2Cl)cc1S(=O)(=O)N1CCOCC1	i	-0.51
Cc1nc(SCC(=O)c2ccccc2)c(C#N)c(-c2ccco2)c1C(=O)NCc1ccco1	i	-0.03
CCOC(=O)c1c(-c2ccccc2)csc1NC(=O)CSc1ccccc1	-8.2*	2.9*
CCN(Cc1ccccc1)S(=O)(=O)c1cc2[nH]c(=O)c(=O)[nH]c2cc1C	i	-0.38
Cn1c(=O)n(C)c2cc(S(=O)(=O)O)ccc21	i	2.3
COCCNC(=O)c1ccc2c(=O)n(CCOC)c(=O)[nH]c2c1	i	0.57
COc1ccc2[nH]cc(CCNC(=O)C3CCCCC3)c2c1	i	1.8
C=CCOC(=O)C1=C[C@@H](c2ccc(Br)cc2)[C@H](CCCO)[C@@H](OCC)O1	i	-0.36
Cc1ccc2nc(N3CCN(Cc4nnnn4Cc4ccccc4)CC3)c(C#N)cc2c1	i	0.58
COC(=O)c1cccc(S(=O)(=O)N(Cc2ccco2)Cc2cc3ccc(OC)cc3[nH]c2=O)c1	i	-1.6
Cc1cc(C)cc(N(CC(=O)N2CCc3ccccc32)S(=O)(=O)c2c(C)noc2C)c1	i	-0.7
CCOC(=O)N1CCN(C(=O)c2ccccc2NC(=O)COc2ccccc2C)CC1	i	0.09
Cc1ccc(N2CCN(C(=O)c3cc(COc4c(C)cccc4C)on3)CC2)c(C)c1	i	1.8
CC(=O)C1C(c2ccc(Cl)cc2)NC(=O)NC1(O)C(F)(F)F (stereo unspecified)	i	-0.03
CCOC(=O)CSc1nnc(-c2ccc(S(=O)(=O)NCc3cccs3)cc2)o1	i	-0.58
c1ccc2nc(-c3nccs3)ccc2c1	i	-0.09
CO[C@H]1C=CO[C@@]2(C)Oc3c(C)c(O)c4c(O)c(c5c(nc6cc(C)ccn65)c4c3C2=O)NC(=O)C(C)=CC=C[C@H](C)[C@H](O)[C@@H](C)[C@@H](O)[C@@H](C)[C@H](OC(C)=O)[C@@H]1C	i	-0.39
CCOc1ccc(NC(=O)c2c3c(nc4ccccc24)CCC3)cc1	i	-1.1
COC(=O)c1[nH]c2ccccc2c1NC(=O)c1ccccc1[N+](=O)[O-]	i	-1.1
c1ccc(-c2ccc(CN3CCSCC3)cc2)cc1	i	0.36

Single records, as listed above:
Shown for CCOc1ccc(NC(=O)c2c3c(nc4ccccc24)CCC3)cc1 → KCNQ2 block = i; KCNQ2 block baseline = -1.1
Shown for CCOC(=O)N1CCN(C(=O)c2ccccc2NC(=O)COc2ccccc2C)CC1 → KCNQ2 block = i; KCNQ2 block baseline = 0.09
Shown for c1ccc(-c2ccc(CN3CCSCC3)cc2)cc1 → KCNQ2 block = i; KCNQ2 block baseline = 0.36

Next section.
mol	KCNQ2 block	KCNQ2 block baseline
Cn1c(-c2c(N)n(CCCc3ccccc3)c3nc4ccccc4nc23)nc2ccccc21	i	-0.93
Cc1ccc(S(=O)(=O)c2cc3c(=O)n4cccc(C)c4nc3n(CC3CCCO3)c2=N)cc1C (stereo unspecified)	i	-0.62
COc1ccc(NC(=O)CN(c2ccc(OC)cc2)S(=O)(=O)c2ccc(OC)c(OC)c2)cc1	i	-0.42
O=C(N/N=C\C=C\c1ccc2c(c1)OCO2)C1COc2cc3ccccc3cc2O1 (stereo unspecified)	i	0.5
Cc1ccc(-c2noc(-c3cc4ccccc4oc3=O)n2)cc1	i	-0.24
COc1ccc(C(=O)N/N=C(\C)Cn2nc([N+](=O)[O-])cc2C)cc1	i	3.8
Cc1cc(C(=O)OCC(=O)c2ccc(Br)s2)c(C)o1	i	1
C=CCOc1ccc(CN(C)CC(O)COc2cccc3ccccc23)cc1 (stereo unspecified)	i	-0.38
CCc1cccc2c(N=O)c(O)[nH]c12	i	2.3
Cc1cc(NC(=O)c2cccnc2Cl)ccc1NC(=O)c1cc2ccccc2o1	i	0.37
COC(=O)c1cccc(COC(=O)c2ccc(N(C)C)cc2)c1	-6.5*	2*
Cc1cccc(NC(=O)CN2C(=O)S/C(=C\c3ccccn3)C2=O)c1	i	0.87
CCc1nnc(NS(=O)(=O)c2ccc(NC(=S)NC(=O)c3ccncc3)cc2)s1	i	-0.54
CN(c1ccc(C(=O)Nc2ccc(F)cc2F)cc1)S(=O)(=O)c1ccccc1	i	2.6
NC1=NC(=O)/C(=C\c2cc([N+](=O)[O-])ccc2Cl)S1	i	-2.4
CC(=O)N1c2ccc(S(=O)(=O)N3CCC(C(=O)Nc4cccc(C)c4)CC3)cc2CC1C (stereo unspecified)	i	-0.78
O=C(C[n+]1ccccc1)N/N=C/c1ccc(F)cc1	i	0.11
COc1ccccc1-c1nnc2n1N=C(c1ccc(O)c(O)c1)CS2	i	1.4
Cc1cc2ccccn2c1C(=O)c1ccc(C#N)cc1	i	1.4
Cc1nnc(SCc2nc3scc(-c4ccccc4)c3c(=O)[nH]2)s1	i	1.1

Pulled one by one from the entries so far:
mol	KCNQ2 block	KCNQ2 block baseline
CCc1nnc(NS(=O)(=O)c2ccc(NC(=S)NC(=O)c3ccncc3)cc2)s1	i	-0.54
O=C(C[n+]1ccccc1)N/N=C/c1ccc(F)cc1	i	0.11

(continued)
mol	KCNQ2 block	KCNQ2 block baseline
COc1ccc(/C=N/n2cnc3c([nH]c4ccc(F)cc43)c2=O)cc1CSc1ccccn1	i	-1.9
Cc1nc(CNS(=O)(=O)c2cc(C)c(C)cc2C)cs1	i	0.44
Cn1cc(C(=O)N2CCCC(Nc3ccc(F)cc3)C2)c2ccccc21 (stereo unspecified)	i	-0.01
CCCCn1c(-c2nonc2N)nc2ccccc21	i	-0.95
O=C(CSc1nnnn1C1CCCCC1)N1c2ccccc2Sc2ccccc21	i	0.43
CCN(CC)S(=O)(=O)c1cc(C(=O)N(C)CC(=O)Nc2ccc(Cl)cc2)ccc1Cl	i	-0.44
NC(=O)c1ccccc1NC(=O)CSc1cn[nH]n1	i	5.7
O=C(c1ccc(S(=O)(=O)N2CCCCC2)cc1)N1CCCc2ccccc21	i	-0.98
O=C(COC(=O)Cc1c(Cl)cccc1Cl)Nc1ccc(OC(F)(F)F)cc1	i	-0.03
Nc1nnc(SCC(=O)N2CCc3ccccc32)n1-c1ccccc1	i	0.07
CCCN1CCC(=O)N([C@H](CSc2ccccc2)Cc2ccccc2)CC1	i	-0.36
O=C(NCCCN1CCOCC1)c1cc2c(=O)[nH]c3ccccc3c2s1	i	-1.2
Cc1ccc(-c2nc(C)sc2CC(=O)Nc2cccc(C)c2C)cc1	i	-2.5
COC(=O)Cn1c2ccc(C)cc2c2nc3ccccc3nc21	i	-0.6
O=C(/C=C/c1c(Cl)cccc1Cl)NCCCn1ccnc1	i	1.7
Cc1cc2nc3c(c(C(F)(F)F)n2n1)CCCC3	i	-0.67
C=C1CCN(C(CC(C)C)C(=O)OC)S(=O)(=O)c2ccccc21 (stereo unspecified)	i	0.02
Cc1ccc(Cl)cc1N1CCN(C(=S)NCc2ccco2)CC1	i	-1.8
CCOC(=O)c1cc(C(=O)OCC)cc(-n2c(C)cc(C(=O)CN3CCOCC3)c2C)c1	i	2.4
Cc1ccc(NC(=O)/C(=C\c2ccccc2)NC(=O)/C=C/c2ccccc2)cc1	i	0.11
COc1ccc(C(=O)Nc2cccc3nc(C)ccc23)cc1OC	i	-0.08
COc1ccc2c(c1)c(CC(=O)Nc1ccc(C(C)=O)cc1)c(C)n2C(=O)c1ccc(Cl)cc1	i	1
O=C(Nc1ccccc1)C1C2CCCCC21 (stereo unspecified)	i	1.4
O=C1CN(C(=O)c2ccco2)C(c2ccc(F)cc2)c2cc(Cl)ccc2N1 (stereo unspecified)	i	-1.5
COc1ccc(C2C3=C(CC(C)(C)CC3=O)Nc3n[nH]c(C)c32)cc1 (stereo unspecified)	i	-0.2
O=C(Nc1cccc(F)c1)c1ccccc1-c1ccccc1	i	-0.06
Cc1ccccc1OCC1Cn2c(nc3c2c(=O)n(C)c(=O)n3C)O1 (stereo unspecified)	i	-0.24
CCOC(=O)/C(=C/C=C1\Sc2cc(OCC)c(OCC)cc2N1CC)C(C)=O	i	76
CC(C)c1ccc(C(=O)Nc2ccc(CN3CCOCC3)cc2)cc1	i	-1.9
C[n+]1ccccc1/C=C/c1ccc2ncccc2c1	i	0.52
CCCS(=O)(=O)N1CCCC(C(=O)NC2CCCCC2)C1 (stereo unspecified)	i	1.1
CNC(=O)c1[nH]cnc1C(=O)Nc1ccccc1C	i	0.02
COc1ccc(CN(C)C(=O)c2sccc2-c2ccccc2)c(OC)c1	i	1.2
CCN(CC(=O)Nc1c(F)cccc1F)C(=O)CNC(=O)C1CCCCC1	i	-1
Cc1ccc(C(=O)NCC(c2ccco2)N2CCc3ccccc3C2)cc1C (stereo unspecified)	-8.8*	-0.97*
Cc1ccc(CN2CC(C(=O)OCc3ccccc3Cl)CC2=O)cc1 (stereo unspecified)	i	-1.4
CC(=O)Nc1ccc(OCC(O)Cn2nc(C)c(C(C)=O)c2C)cc1 (stereo unspecified)	i	-0.93
CN(c1ccc(OCC(=O)NCCc2ccccc2)cc1)S(=O)(=O)c1ccc(Cl)cc1	i	-0.52
Cc1ccc(CN(C(=O)Cn2nnc3ccccc32)C(C(=O)NCc2ccco2)c2ccc(C)o2)cc1 (stereo unspecified)	i	1.5
C/C(=N\O)C(=O)NCC1CCNCC1	i	0.27
COc1ccc2nnc(-c3ccc(C(F)(F)F)cc3)n2n1	i	0.87
OCCOc1cccc(CN2CCC(CO)(CCOc3ccccc3)CC2)c1	i	-0.04
Cc1ccc(/C=C/C(=O)Nc2cccc3cccnc23)o1	i	-0.14
O=C(Oc1ccc(Br)cc1C(=S)N1CCOCC1)c1ccccc1	i	-2.7
Cc1ccc(NC(=O)CSc2nccn(-c3ccc4c(c3)OCCO4)c2=O)cc1	i	0.44
O=C(O/N=C\c1ccc(N2CCCCC2)c([N+](=O)[O-])c1)c1cccc(Cl)c1	i	-1.4
O=C1C2C3C=CC(CC3)C2C(=O)N1c1ccc(Cl)cc1Cl (stereo unspecified)	i	0.04
CN1CCN(CCC(=O)Nc2ccc(Br)cc2)CC1	i	-0.08
CN=C1SC(CC(=O)Nc2ccc(C(C)=O)cc2)C(=O)N1C (stereo unspecified)	i	0.03
C=CCNc1oc(-c2cccc3ccccc23)nc1C#N	i	1.1
O=C(CCCn1c(=O)[nH]c2ccccc2c1=O)Nc1ccc(F)cc1	i	-0.14
CC(C)OC(=O)Cn1nc(C(c2ccccc2)c2ccccc2)oc1=O	i	-0.21
Cc1oc(CC(C)C)c(CN2CCCC2)c1C(=O)O	i	-0.14
